Screening results (PubChem)
NS1 function inh – qHTS Assay for Inhibitors of Influenza NS1 Protein Function; AID 2326, 2010; Potency, µM (series often up to 46.1 µM), for the others: at the top dose activity, positive = more growth; 270,000 compounds, 0.4% hits; S. cerevisiae slowed by influenza A NS1, growth recovery by OD600; also: actives are rising curves; nearly all actives have a fitted effect of over 50% in size
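In this qHTS, NS1 from influenza A is expressed in budding yeast, where it slows growth. Cells are switched from glucose to 2% galactose medium (pH 6.0, -URA), treated with compound, and growth recovery is read at OD600.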
RE007 growth inh – qHTS Assay for Inhibitors of the HIV-1 protein Vpr. Potency, µM (titrated, usually from 92.2 µM), for inactives: at the highest dose activity change, negative = less growth. S. pombe RE007 Vpr strain, BacTiter-Glo ATP luminescence, 24 h; control for the full effect not named in the record. 360,000 compounds, 0.21% hits; active = well fitted falling curve with a large enough effect; inconclusive = small, poorly fitted or top-dose-only effect; inactive = no such curve, though single readings can be large or run the other way;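 also: % is scaled to controls: 0 for no effect and ±100 for the full control effect; nearly all actives have a fitted effect of over 50% in size; the assay follows cell death caused by Vpr and the record does not say whether a fall means rescue or toxicity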
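Fission yeast strain RE007, carrying one chromosomally integrated HIV-1 vpr copy, was seeded at OD 0.01 in PMG+AL medium with 23 nL pinned compound. After 24 h at 30 °C and 99% humidity, viability was read by BacTiter-Glo luminescence.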
SARS PLP yeast – qHTS of Yeast-based Assay for SARS-CoV PLP | 330,000 compounds, 0.19% hits | Potency, µM (doses to about 32.9 µM), inactives show at the highest dose activity, positive = growth rescue | S. cerevisiae expressing SARS-CoV PLpro, growth rescue; control for the full effect not named in the record | AID 485353, 2010; also: 0% is about no effect; nearly all actives have a fitted effect of over 55% in size; growth read by luminescence after 48 h
Cruzain noTriton – qHTS Assay for Promiscuous and Specific Inhibitors of Cruzain (without detergent); Cruzipain (Trypanosoma cruzi), P25779; purified cruzain, Z-FR-AMC fluorescence, no detergent; Potency, µM, inactives show max response, negative = inhibition, usual class: inhibitors; 200,000 compounds, 2.3% hits; AID 1476, 2009; active = well fitted curve in the direction sought with a large enough effect; inconclusive = small, poorly fitted or top-dose-only effect, or another doubt; inactive = no such curve, though single readings can be large; an effect the other way counts as inactive or inconclusive;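 also: plate controls were enzyme without inhibitor for no effect and buffer without enzyme for full effect; nearly all actives have a fitted effect of over 40% in size; top concentration of the series not given in the record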
Target sequence (P25779 123-467 limits assumed): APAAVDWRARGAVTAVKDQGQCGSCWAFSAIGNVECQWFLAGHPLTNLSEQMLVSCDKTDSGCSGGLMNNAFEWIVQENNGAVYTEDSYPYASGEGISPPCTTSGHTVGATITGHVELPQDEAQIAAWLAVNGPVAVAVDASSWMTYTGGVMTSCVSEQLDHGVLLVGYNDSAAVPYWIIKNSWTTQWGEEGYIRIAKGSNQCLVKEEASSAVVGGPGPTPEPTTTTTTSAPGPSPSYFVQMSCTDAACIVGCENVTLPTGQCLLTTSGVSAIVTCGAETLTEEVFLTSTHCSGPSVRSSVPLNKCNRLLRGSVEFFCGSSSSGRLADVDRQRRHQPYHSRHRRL
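Detergent-free condition (0.00005% Triton X-100) in acetate buffer pH 5.5 with DTT. 1.5 nM enzyme and compound were pre-mixed 15 min, then 2 uM Z-FR-AMC substrate added; reaction progress from fluorescence change between first and third reads (60 s).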
LASV entry inh – qHTS for Inhibitors of binding or entry into cells for Lassa Virus; Lassa virus pseudotype entry inhibition, cell reporter; control for the full effect not named in the record; Potency, µM (highest dose often 37.9 µM), without a hit: at the highest dose activity change, negative = inhibition, most hits filed as inhibitors; 300,000 compounds, 1.2% hits; AID 540256, 2011; active means well fitted inhibition curve with a large enough effect; inconclusive means small, poorly fitted or top-dose-only effect, or effect the other way; inactive means flat fitted curve, though single readings scatter; tested in HEK293 cells; also: % is scaled to controls: 0 for no effect and ±100 for the full control effect; nearly all actives have a fitted effect of over 50% in size; luciferase read-out
2A StopGo – High Throughput Screening for Foot and Mouth Disease Virus Antivirals. human cells with a luciferase reporter of 2A StopGo recoding; control for the full effect not named in the record. Potency, µM (highest dose often 57.9 µM), inactives show top-dose signal change, negative = less light. 410,000 compounds, 1.2% hits; active = well fitted falling curve with a large enough effect; inconclusive = small, poorly fitted or top-dose-only effect; inactive = no such curve, though single readings can be large or run the other way; tested in HEK293T cells; also: % is scaled to controls: 0 for no effect and ±100 for the full control effect; nearly all actives have a fitted effect of over 45% in size; luciferase light after 4 h
MARV entry inh – qHTS for inhibitors of binding or entry into cells for Marburg Virus | 300,000 compounds, 1.8% hits | Marburg virus pseudotyped entry inhibition, cell reporter; control for the full effect not named in the record; about a third of the inactives were read at about 46 µM | Potency, µM (highest dose often 37.8 µM), for inactives: top-dose activity change, negative = inhibition, hits mostly inhibitors; active = well fitted inhibition curve with a large enough effect; inconclusive = small, poorly fitted or top-dose-only effect, or effect the other way; inactive = flat fitted curve, though single readings scatter; tested in HEK293 cells; about a fifth of its hits are not listed in these tables; also: % is scaled to controls: 0 for no effect and ±100 for the full control effect; luciferase read-out
Cruzain Triton – qHTS Assay for Promiscuous and Specific Inhibitors of Cruzain (with detergent); Cruzipain (Trypanosoma cruzi), P25779; purified cruzain, Z-FR-AMC fluorescence, 0.01% Triton; Potency, µM, inactives show max response, negative = inhibition, hits mostly inhibitors; 200,000 compounds, 0.43% hits; AID 1478, 2009; active = well fitted curve in the direction sought with a large enough effect; inconclusive = small, poorly fitted or top-dose-only effect, or another doubt; inactive = no such curve, though single readings can be large; an effect the other way counts as inactive or inconclusive;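 also: plate controls were neutral wells for no effect and buffer without enzyme for full effect; nearly all actives have a fitted effect of over 40% in size; top concentration of the series not given in the record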
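In this qHTS format, compounds are incubated with 1.5 nM cruzain for 15 min at room temperature before 2 uM Z-FR-AMC is added. Release of AMC is followed at 360/450 nm, and progress is taken as the 60 s fluorescence difference.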
The depositor's hits bear a star; [ ] = remark or other dose. Unless noted, calls follow the shape of the dose curve; as a rule, active means well fitted rising curve with a large enough effect; inconclusive means small, poorly fitted or top-dose-only effect; inactive means no such curve, though single readings can be large or run the other way. Potency is read from the fitted curve at half-maximal effect.

Screening O=C1c2ccccc2NC(c2ccccc2)N1CCCN1CCOCC1 (stereo not drawn) returned NS1 function inh 2%, RE007 growth inh -7%, SARS PLP yeast 0%, LASV entry inh -1%, 2A StopGo -15% and MARV entry inh -15%.
For O=C1OC(NC(=O)c2ccccc2)C(n2cc(CO)nn2)=C1Cl (stereo not drawn) the results were NS1 function inh -6%, RE007 growth inh 13%, SARS PLP yeast 1%, Cruzain noTriton 0%, LASV entry inh 0%, 2A StopGo inconclusive, MARV entry inh inconclusive and Cruzain Triton -2.0%.
Screening O=C(NCc1cccs1)c1ccc([N+](=O)[O-])cc1 returned NS1 function inh 7%, RE007 growth inh -3%, SARS PLP yeast -12%, Cruzain noTriton -4%, LASV entry inh 1%, 2A StopGo 11%, MARV entry inh 9% and Cruzain Triton 2.7%.
`O=C(O)CSc1nnc(-c2ccc(Cl)cc2Cl)n1-c1ccc(Cl)cc1` gave NS1 function inh inconclusive, RE007 growth inh 12%, SARS PLP yeast -3%, LASV entry inh 2%[46.1 µM], 2A StopGo -9% and MARV entry inh -9%[46.1 µM].
O=C(CCNC(=O)C1CCN(S(=O)(=O)c2ccc(F)cc2)CC1)NCCc1cccc(F)c1 was read as NS1 function inh 7%, RE007 growth inh 0%, SARS PLP yeast -3%, LASV entry inh -4%[46.1 µM], 2A StopGo -5% and MARV entry inh 0%[46.1 µM].
For O=C(N1CCCCCC1)N1CCN(C(=O)N2CCOCC2)CC1 the results were NS1 function inh 0%, RE007 growth inh 19%, SARS PLP yeast inconclusive, Cruzain noTriton -1%, LASV entry inh -3%, 2A StopGo -9%, MARV entry inh -4% and Cruzain Triton 5.5%.
`COc1ccc(N2C(=O)CC(S/C(N)=N/N=C(\C)c3cccs3)C2=O)cc1` (stereo not drawn) gave NS1 function inh -9%, RE007 growth inh 2%, SARS PLP yeast -1%, Cruzain noTriton 0%, LASV entry inh -11%, 2A StopGo 5%, MARV entry inh inconclusive and Cruzain Triton -13%.
Cc1ccc(Cn2c(SCC(C)C)nc3c2c(=O)n(C)c(=O)n3C)cc1 was read as NS1 function inh -47%, RE007 growth inh 0%, SARS PLP yeast 4%, Cruzain noTriton 26%, LASV entry inh inconclusive, 2A StopGo -18%, MARV entry inh 0% and Cruzain Triton -9.1%.
`C=CCn1c(SCc2nc3ccccc3c(=O)[nH]2)nc2sc3c(c2c1=O)CCCC3` gave NS1 function inh 3%, RE007 growth inh 2%, SARS PLP yeast 0% and 2A StopGo 10%.
Screening CC[C@H](C)[C@H](NC(=O)OCc1ccccc1)C(=O)OCC(=O)N(C)CC(=O)Nc1ccccc1Cl returned RE007 growth inh -12%, SARS PLP yeast 0%, LASV entry inh 4%, 2A StopGo -22% and MARV entry inh -2%.
For COC(=O)c1ccc(COc2cc(C)ccc2C)o1 the results were NS1 function inh -7%, RE007 growth inh 1%, SARS PLP yeast 1% and 2A StopGo 59%[activator].
For Cc1ccc(Cl)cc1N1CCN(C(=O)CN(C2CCCCC2)S(C)(=O)=O)CC1 the results were NS1 function inh 6%, RE007 growth inh 1%, SARS PLP yeast -34%, Cruzain noTriton inconclusive, LASV entry inh -24%, 2A StopGo 14µM*, MARV entry inh inconclusive and Cruzain Triton -5.3%.
CCn1c(-c2cccn(Cc3ccc(Cl)cc3Cl)c2=O)n[nH]c1=S was read as NS1 function inh -7%, RE007 growth inh 21%, SARS PLP yeast -1%, LASV entry inh -23%, 2A StopGo inconclusive and MARV entry inh -18%[46.1 µM].
For CCn1cc(CN2CCC(n3nccc3NC(=O)CCOc3ccccc3)CC2)c(C)n1 the results were NS1 function inh 10%, RE007 growth inh 2%, SARS PLP yeast 2% and 2A StopGo -14%.
For Cc1ccc(C(=O)C2=C(O)C(=O)N(Cc3cccnc3)C2c2cccc(Oc3ccccc3)c2)o1 (stereo not drawn) the results were RE007 growth inh -8%, LASV entry inh -5%, 2A StopGo 6% and MARV entry inh -7%.

The last 2 entries of the section before are carried over, then new ones follow:
For CCn1cc(CN2CCC(n3nccc3NC(=O)CCOc3ccccc3)CC2)c(C)n1 the results were NS1 function inh 10%, RE007 growth inh 2%, SARS PLP yeast 2% and 2A StopGo -14%.
For Cc1ccc(C(=O)C2=C(O)C(=O)N(Cc3cccnc3)C2c2cccc(Oc3ccccc3)c2)o1 (stereo not drawn) the results were RE007 growth inh -8%, LASV entry inh -5%, 2A StopGo 6% and MARV entry inh -7%.
For COc1ccc(C2C(C(=O)Nc3cccc(C)n3)c3ccccc3C(=O)N2C)cc1 (stereo not drawn) the results were NS1 function inh 0%, RE007 growth inh 18%, SARS PLP yeast -22%, Cruzain noTriton -5%, LASV entry inh inconclusive, 2A StopGo -4%, MARV entry inh inconclusive and Cruzain Triton -1.5%.
`CCOC(=O)C/C(C)=N/NC(=O)CNc1cccc(Cl)c1C` gave RE007 growth inh 1%, SARS PLP yeast -4%, LASV entry inh -29%, 2A StopGo 30% and MARV entry inh 36%[46.1 µM].
Screening Cc1cccc(N2CC(C(=O)Nc3nnc(SCC(=O)N4CCOCC4)s3)CC2=O)c1 (stereo not drawn) returned NS1 function inh 4%, RE007 growth inh 1%, SARS PLP yeast 10% and 2A StopGo -14%.
Screening COc1ccc(-c2nc(CSCC(=O)NCC3CCCO3)c(C)o2)cc1OC (stereo not drawn) returned NS1 function inh -5%, RE007 growth inh 5%, SARS PLP yeast -1%, Cruzain noTriton 3%, LASV entry inh 8%, 2A StopGo 14%, MARV entry inh 4% and Cruzain Triton 2.4%.
`CCCN1CCN(CCCNC(=O)c2ccc(CS(=O)c3ccccc3C)o2)CC1` (stereo not drawn) gave NS1 function inh 0%, RE007 growth inh 8%, SARS PLP yeast -2%, LASV entry inh 7%[46.1 µM], 2A StopGo -6% and MARV entry inh -20%[46.1 µM].
Screening N#C/C(=C(/O)COC(=O)c1ccccc1O)c1nc2ccccc2s1 returned NS1 function inh 6%, RE007 growth inh 12%, SARS PLP yeast -1%, LASV entry inh 2%, 2A StopGo inconclusive and MARV entry inh -4%[46.1 µM].
Screening O=C(CSc1nnnn1-c1ccc(F)cc1)NC1CCCCC1 returned NS1 function inh 4%, RE007 growth inh 17%, SARS PLP yeast -8%, Cruzain noTriton -2%, LASV entry inh 5%, 2A StopGo -1%, MARV entry inh 14%[46.1 µM] and Cruzain Triton 5.8%.
O=C(/C=C/c1ccccc1)Nn1cnnc1 was read as NS1 function inh 2%, RE007 growth inh 9%, SARS PLP yeast 5%, Cruzain noTriton 3%, LASV entry inh 2%, 2A StopGo 19%, MARV entry inh 27% and Cruzain Triton 3.3%.
`Cc1ccc(N(C(=O)c2ccc3c(c2)OCO3)C2C=CS(=O)(=O)C2)cc1C` (stereo not drawn) gave NS1 function inh 5%, RE007 growth inh -15%, LASV entry inh -4%, 2A StopGo -18% and MARV entry inh 1%.
`CCSCc1nnc(SCC(=O)Nc2nccs2)n1CC` gave NS1 function inh 0%, RE007 growth inh 18%, SARS PLP yeast 0%, LASV entry inh 4%, 2A StopGo -7% and MARV entry inh inconclusive.
Screening O=C(CCc1ccccc1)Nc1ccc(NC(=O)C2CCCCC2)nc1 returned NS1 function inh 4%, RE007 growth inh 7%, SARS PLP yeast 1%, LASV entry inh 3%, 2A StopGo -1% and MARV entry inh 0%[46.1 µM].
CC(C)OCCCNC(=O)c1ccc2c(c1)ncn2C1CCCC1 was read as NS1 function inh 17%, RE007 growth inh 1%, SARS PLP yeast -3%, Cruzain noTriton 16%, LASV entry inh 10%, 2A StopGo 29%, MARV entry inh 27% and Cruzain Triton 2.3%.
`COc1ccc(NC(=O)CSCC(=O)N(C)Cc2c(F)cccc2Cl)cc1` gave RE007 growth inh inconclusive, SARS PLP yeast -4%, LASV entry inh 19%, 2A StopGo -5% and MARV entry inh -17%.
`Cc1ccc(S(=O)(=O)CCC(=O)NCCC2=CCCCC2)cc1` gave RE007 growth inh 3%, SARS PLP yeast -4%, LASV entry inh -7%, 2A StopGo -8% and MARV entry inh -4%[46.1 µM].
For Cc1cc(C)nc(NC(=O)c2ccc(OC(C)C)cc2)n1 the results were NS1 function inh 4%, RE007 growth inh 1%, SARS PLP yeast 2%, Cruzain noTriton 2%, LASV entry inh 22%, 2A StopGo 30%, MARV entry inh inconclusive and Cruzain Triton 0.6%.
`Cc1oc2ncnc(N3CCCCC3)c2c1C(=O)Nc1cccc(Cl)c1C` gave Cruzain noTriton -5%, LASV entry inh -17%[46.1 µM], 2A StopGo -17% and Cruzain Triton -7.3%.
For COc1cccc(NC(=S)N2CCN(Cc3ccccc3)CC2)c1 the results were NS1 function inh 7%, RE007 growth inh -6%, SARS PLP yeast -4%, Cruzain noTriton -1%, LASV entry inh 1%, 2A StopGo -10%, MARV entry inh inconclusive and Cruzain Triton 1.9%.
`O=C(CSc1nnc(-c2ccncc2)o1)Nc1cccc(Cl)c1` gave RE007 growth inh 21%, SARS PLP yeast 1%, LASV entry inh 9%, 2A StopGo 23% and MARV entry inh 12%.
For CCn1cc(C(=O)NCC(=O)NCCCN2CCOCC2)c(=O)c2cc3c(cc21)OCO3 the results were NS1 function inh -6%, RE007 growth inh -1%, SARS PLP yeast -2% and 2A StopGo -8%.
Screening COc1ccc(NC(=O)CSc2nc3ccccc3c3nc4ccccc4n23)cc1 returned NS1 function inh 7%, RE007 growth inh 5%, SARS PLP yeast -3%, Cruzain noTriton -23%, LASV entry inh -18%, 2A StopGo 7%, MARV entry inh inconclusive and Cruzain Triton -1.5%.
